Assay outcomes (PubChem BioAssay)
Bead autofluor: counter-screen for toxin protease inhibitors: compound fluorescence; compound autofluorescence counterscreen, microsphere flow cytometry; active compounds read high; fluorescence intensity (test concentration not listed); 360,000 compounds, 3.1% hits;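 active = at least 3 SD above the mean of all compounds, about 16000 in these data; inconclusive = too few beads counted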;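 also: 100 nL of 1 mM stock went into each well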
ugtP null kill: kills S. aureus RN4220 lacking UgtP; S. aureus RN4220 ugtP deletion, OD600 growth, 16 h; some inactives read as strong as hits; growth inhibition, % (test concentration not listed); 330,000 compounds, 0.54% hits;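 active = z-score under -3 and OD600 up to 0.15 on both plates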;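 also: plate controls were untreated wells for no effect and antibiotic for full effect; wells of about 80 µL received 100 nL stock; the first replicate is given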
PrP UTR inh: inhibition of PrP 5' UTR reporter expression; inhibition, % (no concentration beside the values); cell-based PrP 5' UTR mRNA reporter, plate reader; 340,000 compounds, 0.35% hits;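 active = every replicate at 50% or more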;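 also: 0 = median of the neutral control wells; tested in H4 reporter cells; numbers are from one replicate; inactives centre near -14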
RN4220 kill: S. aureus RN4220 growth inhibition | OD600, 16 h | inhibition, % (test concentration not listed) | 330,000 compounds, 0.33% hits;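 active = z-score of -3 or lower and OD600 up to 0.18 on both plates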;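 also: plate controls were untreated cells for no effect and reference antibiotic for full effect; stock transfer was 100 nL into about 80 µL; one replicate is shown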
BJeLR viability: kills HRASV12-expressing BJeLR cells; 300,000 compounds, 0.17% hits; inhibition, % (test concentration not listed); BJeLR (HRASV12) viability, CellTiter-Glo ATP luminescence, 48 h; reference of the scale not given here; AID 1554;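 active = replicate mean above 50%; inconclusive = above 50% but judged a plate artefact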;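 also: 50 nL library stock added to about 25 µL; numbers are from one replicate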
Mtb hypoxia rep: Mtb hypoxia fluorescent reporter inhibition | M. tuberculosis hypoxia-regulated fluorescent reporter, fluorescence | fluorescence inhibition, % (test concentration not listed) | 300,000 compounds, 0.1% hits;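 active = 35 to 45% if threefold the growth effect, above 45% if 1.5-fold the growth effect; inactive = the rest, general growth blockers included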;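 also: wells of about 50 µL received 100 nL stock; 0% = vehicle wells and 100% = reference inhibitor wells; whole bacteria with a GFP reporter of the hypoxia response; strong numbers were not always called active; many hits fall short of the cut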
Mtb hypoxia rep growth: second read-out of Mtb hypoxia rep, no call of its own (marks repeat the call); growth inhibition, %; measured here: M. tuberculosis growth (absorbance);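 0% = vehicle and 100% = reference antibiotic; read after six days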
* hit, by the source's call; u = inconclusive; x = not tested or not shown. No enrichment for hits; overall some 4% were active at least once.

SMILES,RN4220 kill,PrP UTR inh,Mtb hypoxia rep,Bead autofluor,BJeLR viability,ugtP null kill,Mtb hypoxia rep growth
Cc1cccc(-n2c(-c3ccco3)nc3ccccc3c2=O)c1C,2.7,-52,2,2676,-18,16,11
S=C1COC(c2ccccc2)N1c1ccccc1 (stereo unspecified),2.6,-15,9,4441,-15,10,9
COc1ccc(CCNC(=O)CN(C2CCCCC2)S(C)(=O)=O)cc1OC,8.6,-3,13,7890,12,-2,4
Cc1ccc2ccc(C3C(=O)c4ccccc4C3=O)nc2c1,9.4,-89,8,8367,-2,1,2
Cc1ccc(CNC(=O)C2CSC3(C)CCC(=O)N23)cc1 (stereo unspecified),3.9,-6,4,3771,x,3,12
CN(C)S(=O)(=O)c1ccc(C(=O)NCC[N+]2(C)CCCCCC2)o1,2.5,-27,5,4003,-5,7,-2
O=C(CSc1nc2ccccc2o1)NCC1CCCO1 (stereo unspecified),2.5,-13,2,5636,4,5,4
COc1ccc(-c2nc(-c3ccccn3)no2)cc1,11,91*,-3,2701,x,-7,-10
CC(C)C1NC(=S)N(C2CCCCC2)C1=O (stereo unspecified),6.3,-66,2,2092,-10,1,1
CCN1CCN(C(=S)c2ccc(OCC(=O)N3CCOCC3)cc2)CC1,2.1,-36,8,19327*,-2,6,-4
O=C(CSc1nc2ccccc2c(=O)[nH]1)N1CCOCC1,-1.8,-28,-2,11001,-10,-5,4
CC(C)(C)NC(=O)NC(=O)COc1ccccc1C#N,6.9,-28,7,7903,1,-4,9
O=C(OCc1ccc(C(=O)c2ccccc2)cc1)c1cccc(-c2nnc(-c3ccccc3)o2)c1,4.5,x,7,13281,-14,-8,2
CCCCCCCCCCCCN1[C@@H](CC(C)=O)c2cc(C(F)(F)F)ccc2S1(=O)=O,x,1,x,3190,-1,x,x
C=CC1=C(C(=O)O)N2C(=O)[C@@H](NC(=O)/C(=N/OCC(=O)O)c3csc(N)n3)[C@H]2SC1,x,-7,x,5094,-3,x,x
Cc1nnsc1C(=O)NC(=O)Nc1ccc(F)c(Cl)c1,9.5,-7,19,4488,-12,0,10
CC1(C)SC2c3ccccc3C(=O)N2[C@@H]1C(=O)NC1CCCC1 (stereo partly specified),1.6,-13,0,5243,1,1,-2
Cc1ccc(-c2cc(-c3ccccc3Cl)[nH]n2)c(O)c1,-7.4,-185,-1,6611,-2,11,5
CN(C)c1ccc(P(=O)(OC2CCCCC2)C(Nc2ccccc2)c2cccnc2)cc1 (stereo unspecified),5.0,x,9,4406,-1,4,13
O=C(OCC(=O)N1CCCc2ccccc21)c1ccccc1NCCO,5.2,-5,-1,6120,4,1,-1
N/C(=N\OS(=O)(=O)c1ccccc1)c1ccccn1,3.7,-11,-4,2258,-8,5,7
CC(=O)C(CN1CCCCC1)=NO,2.4,x,4,x,x,1,3
CCOc1ccccc1C(=O)NCC(=O)NCCSc1ccc(Br)cc1,5.8,-11,4,4658,x,-3,13
Cc1c(C(=O)N(Cc2ccccc2Cl)C2CCS(=O)(=O)C2)oc2ccccc12 (stereo unspecified),7.8,-1,2,5504,-3,-3,1
O=C(Nc1nc2ccsc2c(=O)s1)c1ccco1,5.6,x,1,3917,-2,2,6
O=C(O)c1[nH]c2ccc(Cl)cc2c1CCN1C(=O)c2ccccc2C1=O,5.7,-19,0,3429,0,10,0
COc1ccc(-c2cc(C(=O)N3CCC3)c3ccccc3n2)cc1OC,-1.0,-14,8,5266,-1,-3,3
COc1cccc(C(=O)c2c[nH]c(C(=O)NCc3cccs3)c2)c1,1.0,-10,-5,8432,-4,-4,1
CC1C2CC(C(CN(C)C)/C2=N/O)C1(C)C (stereo unspecified),x,-25,x,11003,-1,x,x
Cn1c(Cc2ccc(Cl)cc2)nnc1SCC(=O)NC1CC1,0.7,-10,1,6907,3,3,0
Cc1nc2ccccn2c1CN(C)C(=O)C1CCC(=O)N(Cc2cccc(F)c2)C1 (stereo unspecified),-0.2,-26,16,5410,-2,3,5
Cc1ccc(C)c(NC(=O)CN(C)C(=O)c2cc3ccccc3oc2=O)c1,5.5,-12,1,3548,x,-1,9
O=C(CSc1nc(-c2cccs2)cc(C(F)(F)F)n1)NCCCN1CCOCC1,7.7,-5,3,3545,2,0,2
Cc1ccc(Oc2nc3c(c(=O)n(Cc4ccccc4F)c(=O)n3C)n2C)cc1,0.2,-17,1,9688,9,17,4
COc1ccc(C(=O)c2sc(Nc3ccccc3)nc2C)cc1,-1.8,-20,7,3504,-7,7,11
CC(=O)Nc1cccc(C(=O)N2CCC(n3nccc3NC(=O)CC(C)C)CC2)c1,4.6,-11,-1,4806,-3,9,-10
CCc1oc(C(=O)OC)cc1CSC(=N)N,-1.7,-29,6,4332,-3,-3,-6
O=C(CN1C(=O)S/C(=C\c2ccc(F)cc2)C1=O)Nc1cccc(S(=O)(=O)NCc2ccco2)c1,4.6,-13,1,4554,9,-2,0
CC(C)C(=O)Nc1ccc(C(=O)NCc2cccnc2)cc1,1.9,-8,6,2424,78*,-9,9
CCc1nnc(NS(=O)(=O)c2ccc(NC(=O)/C=C/C(=O)O)cc2)s1,x,-7,x,4099,-8,x,x
CC(NC(=O)c1cc([N+](=O)[O-])cc([N+](=O)[O-])c1)c1ccc(-n2ccnc2)cc1 (stereo unspecified),2.2,-24,15,6038,2,-3,18
COc1ccc(CC(NC(C)=O)C(=O)NC2CCN(C(=O)C3CCCCC3)CC2)c(OC)c1 (stereo unspecified),-1.5,-12,0,6169,-2,9,-4
Cn1c(=O)c2c(nc(Oc3ccccc3N)n2C)n(C)c1=O,6.4,-25,12,3640,-1,-1,7
O=C(CSc1nc2ccccc2s1)N1CCN(C(=O)c2ccco2)CC1,-15,-10,3,3253,-2,-16,6
Cc1ccc(C(=O)Nc2ccc3c(c2)OCO3)cc1S(=O)(=O)N1CCCC1,-7.0,-43,17,2906,1,0,14
C#CCN1C(C)=C(C(=O)OC)C(c2cccc([N+](=O)[O-])c2)C(C(=O)OCC)=C1C (stereo unspecified),6.9,4,10,4046,x,-12,4
COc1ccc(C(=O)N2CCN(S(=O)(=O)c3ccc(Cl)cc3)CC2)cc1S(=O)(=O)N1CCOCC1,1.2,x,3,u,x,3,4
O=C(Nc1ccc(Br)cc1)c1cnc[nH]1,2.2,-27,9,5064,-3,-1,2
CC(=O)c1sc(NC(=O)c2ccc3c(c2)OCO3)nc1C,2.0,-66,-6,5463,5,-9,-9
CCOc1ccc2nc(N3CCC(C(=O)NC4CCCCC4)CC3)sc2c1,3.9,-29,-5,3632,-2,-6,11
COc1cc(C(=O)NCc2nnc(SCC(=O)N3CCCCCC3)o2)cc(OC)c1OC,4.3,7,2,4261,-14,7,-5
Cn1c(=O)[nH]c(=O)c2c1nc1n2CCCS1,-1.3,-26,x,2593,-1,2,x
O=C(COC(=O)CCOc1ccccc1)NCCC1=CCCCC1,4.3,-25,11,3377,6,13,-8
COCCn1c(=O)c2c(nc3n2CC(C)CN3Cc2ccccc2)n(C)c1=O (stereo unspecified),4.8,-16,6,4210,-4,14,11
COc1ccc(Cl)cc1NC(=O)CN(C)C(=O)c1ccc2n[nH]nc2c1,0.9,-20,8,7705,x,4,10
Cc1onc(-c2ccccc2Cl)c1C(=O)Nc1sc2c(c1C(N)=O)CCC(C)C2 (stereo unspecified),-6.6,-15,-1,3832,-13,-29,-2
CC1CCN(c2c(NCC3CCC(C(=O)NCc4ccc(F)cc4)CC3)c(=O)c2=O)CC1 (stereo unspecified),3.1,-11,11,4514,-1,5,4
CCOC(=O)CSc1nc(-c2ccccc2)nc2ccccc12,0.4,4,4,21864*,-11,45,5
COc1cc(C)ccc1OCC(=O)Nc1ccc2c(c1)OCO2,4.0,-69,12,3447,x,2,-6
CCOC(=O)C1=C(C)Nc2nc(C)nn2C1c1cc(OC)ccc1OC (stereo unspecified),-5.5,-10,x,6002,-7,-3,x

Four structures already listed, sorted by SMILES length, low to high.
SMILES,RN4220 kill,PrP UTR inh,Mtb hypoxia rep,Bead autofluor,BJeLR viability,ugtP null kill,Mtb hypoxia rep growth
Cn1c(=O)[nH]c(=O)c2c1nc1n2CCCS1,-1.3,-26,x,2593,-1,2,x
CC(C)(C)NC(=O)NC(=O)COc1ccccc1C#N,6.9,-28,7,7903,1,-4,9
CCOC(=O)CSc1nc(-c2ccccc2)nc2ccccc12,0.4,4,4,21864*,-11,45,5
Cc1nc2ccccn2c1CN(C)C(=O)C1CCC(=O)N(Cc2cccc(F)c2)C1 (stereo unspecified),-0.2,-26,16,5410,-2,3,5

Continuation.
SMILES,RN4220 kill,PrP UTR inh,Mtb hypoxia rep,Bead autofluor,BJeLR viability,ugtP null kill,Mtb hypoxia rep growth
CCn1c(SCC(=O)c2ccc3ccccc3c2)nnc1-c1cccs1,21,-12,9,u,-3,4,9
CC(NC(=O)OCc1ccccc1)c1ccccc1 (stereo unspecified),2.9,-6,x,4405,-13,3,x
Cc1ccc(S(=O)(=O)Nc2nc(CN3CCOCC3)nc3sc(C)c(C)c23)cc1,1.5,1,-8,3921,x,-1,2
N#CCC(=O)NN=Cc1cccc(Oc2ccccc2)c1,1.1,x,7,x,x,6,2
NC(=O)c1ccc(NC(=O)CN2C(=O)NC3(CCCCCCC3)C2=O)cc1,0.2,-16,-6,3628,x,-1,5
Cn1c(CNc2nc(-c3ccccc3)cs2)nnc1SCC(=O)OC1CCCCC1,-0.9,-4,x,2074,-6,-6,x
Cc1ccc(Cn2c(Cc3ccccc3)nc3ccccc32)cc1,7.7,-13,x,2897,3,3,x
CCCCn1nnnc1NCc1cc(Cl)c(OC)c(OC)c1,3.9,-7,3,2049,1,-4,4
CN(C(=O)COC(=O)CCC(=O)c1ccc(F)cc1)C1CCCCC1,1.5,-32,11,2893,x,0,10
O=C(Nc1ccccc1F)C1COc2ccccc2O1 (stereo unspecified),3.8,16,5,3650,-4,11,0
CN(C)/C=c1\sc2c(C#N)cc(C(=O)c3ccc(Br)cc3)n2c1=O,x,-12,x,3184,6,x,x
Cc1cc(NC(=O)CSc2nnc(-c3ccc(Cl)s3)o2)no1,x,-10,x,5031,8,x,x
COc1ccc(CN2C(=O)NC(=O)/C(=C/c3cc(OC)c(OC)c(OC)c3)C2=O)cc1,1.4,-24,3,4390,12,4,-2
Cc1cc(C(=O)OCC(=O)Nc2cccc(S(=O)(=O)N3CCOCC3)c2)c(C)o1,-0.3,-7,x,7393,3,4,x
CCc1ccc(NC(=O)CSc2nc(=O)n(CCCN(C)C)c3c2CCC3)cc1,2.5,-14,4,6119,12,5,4
CCOc1cccc(C2C(C(=O)c3ccc(C)o3)=C(O)C(=O)N2Cc2ccncc2)c1 (stereo unspecified),4.5,-18,0,3326,6,16,0
CCc1ccc(CNC(=O)C2CCC(=O)N2C2CCCCC2)cc1 (stereo unspecified),3.6,-18,5,7736,14,6,-2
COCC(C)NC(=O)C(C)N1c2cccc3cccc(c23)S1(=O)=O (stereo unspecified),1.6,-17,8,3573,-6,14,9
CN1CCCN(S(=O)(=O)c2ccc3c(c2)OCCO3)CC1,1.5,-15,-2,22351*,8,2,0
COc1ccccc1Oc1coc2cc(OC(=O)N3CCOCC3)ccc2c1=O,6.8,-17,-6,22043*,-4,-6,-5
C=CCOC(=O)C1=C[C@@H](c2csc3ccccc23)C[C@@H](OCc2ccc(CO)cc2)O1,x,-16,x,4509,-6,x,x
COc1ccc(/C=N/NC(=O)Cc2csc(Nc3cccc(C(F)(F)F)c3)n2)cc1C,x,-20,x,3354,7,x,x
CC(=O)Nc1ccc(S[C@@H](CCN2CC[C@H](O)CCC2=O)c2ccccc2)cc1,-7.4,-8,8,2889,x,-1,-1
O=C(NC1(C(F)(F)F)N=C2SCCN2C1=O)c1ccccc1 (stereo unspecified),0.5,-25,15,24460*,-3,-5,12
